Source: PubChem
Biofilm kill mix = mixture kills Candida albicans biofilm cells; inhibition, % at 7.6 µM; actives 0.02% (n = 120,000); C. albicans biofilm persisters + clotrimazole, fluorescence viability; primary screen in compound mixtures of four per well;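 active = inhibition above 30.3% in the primary screen of four-compound pools, then above 30% when the compound was retested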;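 also: compounds exposed to preformed 24 h biofilms for 48 h; the number belongs to the whole pool; some results filed as inactive read as strong as hits; inactives centre near 12; 0% = biofilm with clotrimazole alone and 100% = kill control; retested singly at about 60 µM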
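Assay system: C. albicans biofilms / Medium: RPMI/MOPS medium, pH 7.0 / Schedule: biofilm formation 24 h, compound exposure 48 h, 37 °C / Measured by: Alamar Blue fluorescence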
Active calls of the source: *. These rows are one share of the data, so the mix of outcomes need not match the whole.

SMILES	Biofilm kill mix
COc1cc(NC(=O)c2cnc(N)s2)cc(C(=O)Nc2cccc(C(F)(F)F)c2)c1	14
OC(CNCc1ccccc1C(F)(F)F)C(F)(F)F (stereo not drawn)	-1
Cc1ccc(C(=O)N(CC(=O)NC2CCCC2)c2ccccc2C)s1	6
CC1(C)C(=O)Nc2ccccc2N1C(=O)CN1C(=O)C(=O)N(C2CCCC2)C1=O	11
O=C(CSc1nnc(-c2ccncc2)n1-c1ccccc1Cl)Nc1ccc(C(=O)O)cc1	13
CCOc1cc(/C=C/C(=O)OCC(=O)NC2CCS(=O)(=O)C2)ccc1OCc1ccccc1 (stereo not drawn)	3
O=C(Nc1ccccc1-c1ccccc1)c1cccs1	10
CCC(=O)Nc1ccc2c(c1)ncn2C	9
CNC(=O)Cn1c(C)cc(=O)c2cccc(OC)c21	24
Cc1c(NC(=S)NC(=O)c2sc3ccccc3c2Cl)cccc1C(=O)O	16
O=C(Cc1ccccc1)N/N=C/C=C/c1ccccc1[N+](=O)[O-]	11
COc1ccc(/C=N/NC(=O)c2cccnc2)cc1CSc1ccccn1	29
COc1ccc(-c2nc(N)c(C#N)c(-c3cccnc3)c2C)cc1	15
CCNC(=S)Nc1cccc(NC(=O)c2ccccc2O)c1	13
Clc1ccc2c(c1)c1cc(Cl)ccc1n2CN1CCOCC1	10
CCOC(=O)c1c(C)nc(SCC(N)=O)c(C#N)c1-c1ccccc1	-14
COC(=O)c1cc(C(=O)OCC(=O)Nc2ccccc2OC(F)F)cc([N+](=O)[O-])c1	10
CCC(NC(=O)CCc1ccccc1)c1ccccc1 (stereo not drawn)	22
Cc1nc2ccccc2c(=O)n1/N=C/c1ccc2ccccc2c1O	23
O=C1N/C(=C/c2cccs2)C(=O)N1Cc1ccc(Br)cc1	17
CC(NC(=S)Nc1ccc([N+](=O)[O-])cc1)c1ccncc1 (stereo not drawn)	2
O=c1c2ccccc2nc2c3ccccc3c(NCCO)nn12	17
CC(=O)C1=C(O)C(=O)N(Cc2cccnc2)C1c1ccc(Cl)cc1 (stereo not drawn)	10
CC(C)(C)CC(C)(C)NC(=O)CSCC(=O)Nc1ccc2ccccc2c1	7
Cc1ccc(OCCSc2nnc(-c3cccs3)n2C)cc1	10
O=C(Cn1c(=O)c(=O)n(Cc2ccccc2)c2ccc(Cl)cc21)Nc1cc(F)ccc1F	9
O=C1CC(c2ccccc2F)c2c(c3ccccc3[nH]c2=O)O1 (stereo not drawn)	36
Cc1ccc(C(C)NC(=O)C23CC4CC(CC(C4)C2)C3)cc1 (stereo not drawn)	9
Cc1ccc(CNC(=O)c2nnc(Cc3ccc(Cl)cc3)o2)cc1	4
CCOC(=O)c1ccc(S(=O)(=O)N2CCN(C(=O)c3nn(C)c(=O)c4ccccc34)CC2)cc1	16
O=C(O)CC(NC(=O)Cc1ccc(Cl)cc1)c1ccco1 (stereo not drawn)	16
Cc1ccc(-c2cc(C(=O)OC3CCOC3=O)c3ccccc3n2)c(C)c1 (stereo not drawn)	-32
COc1ccccc1N1CCN(C(c2cccs2)C(C)NC(=O)c2ccncc2)CC1 (stereo not drawn)	19
OCCCn1c(-c2ccccc2)csc1=Nc1ccccc1	16
Cc1cccc(Cn2nc(-n3cccc3)c3c(C)cc(C)nc32)c1	3
O=C(CCC1CCCCC1)Nc1ccc(C(=O)c2ccncc2)cc1	14
CC(C)CC(=O)NC(=S)Nc1cccc2nsnc12	6
Cc1ccc(C(=O)NC(=S)N2CCN(c3ccccc3F)CC2)cc1	9
C/C(=N/OC(=O)C1CC1)c1cc(-c2ccc(Cl)cc2)no1	11
CCN(CC)S(=O)(=O)N1CCC(C(=O)NCc2ccc3c(c2)OCO3)CC1	17
COc1cc(OC)cc(C(=O)N[C@H](C(=O)Nc2nc(-c3ccc(OC)c(OC)c3)cs2)C(C)C)c1	26
O=C(COC(=O)c1ccccc1C(=O)c1ccc(Cl)cc1)NCCc1ccccc1	14
C[C@H](NC(=O)c1nc[nH]c1C(=O)N[C@@H](C)c1ccccc1)C(=O)OC(C)(C)C	18
O=C(CSc1ncccn1)N/N=C/c1cccc(OC2CSC2)c1	12
CN1C(=S)SC(/[N+]([O-])=C/c2c(F)cccc2Cl)C1(C)C (stereo not drawn)	22
Cc1ccccc1NC(=O)c1sc(NC(=O)COc2ccccc2)c(C#N)c1C	17
Cc1ccc(C2=NN(C(=O)C3CCCO3)C(c3ccco3)C2)cc1 (stereo not drawn)	-6
O=C(NN1C(=O)c2cc(Br)ccc2NC1c1cc(Br)cc(Br)c1O)c1ccncc1 (stereo not drawn)	9
Brc1cccc(/C=N/Nc2nc(N3CCCCC3)nc(N3CCCCC3)n2)c1	2
Cc1cc(=O)[nH]c(-c2cccnc2)n1	3
CCOC(=O)/C=c1\s/c(=C\c2ccc(C(F)(F)F)cc2)c(=O)n1CC(=O)NCc1ccco1	18
CC1CCCN(Cc2c(O)ccc3c4c(c(=O)oc23)CCCC4)C1 (stereo not drawn)	29
COC(=O)C1=C(SC)N(c2ccccc2)C(c2ccccc2)CC1=O (stereo not drawn)	9
N#CCOc1ccc2oc(-c3ccco3)cc(=O)c2c1	12
O=C1C(Cl)=C(Nc2ccc(F)cc2)C(=O)N1CCc1ccccc1	9
O=C(O)c1ccccc1NC(=O)N1CCOCC1	11
COc1ccc(-n2c(COc3cccc4ccccc34)nnc2SCC#N)cc1	16
Cc1ccc(NC(=O)NN2CCOCC2)cc1	-5
CN(C)S(=O)(=O)c1ccc(C(=O)OCC(=O)Nc2cccnc2Cl)cc1	11
C/C(=N\NC(=O)c1ccc(Cl)cc1)c1cccs1	17

Next part:
SMILES	Biofilm kill mix
CC1=Nc2ccc(Br)cc2C(c2ccccc2)N1CC(=O)NN (stereo not drawn)	-1
Cc1cccc(N(CC(=O)N2CCN(c3ccccc3F)CC2)S(C)(=O)=O)c1	2
O=C(NS(=O)(=O)Oc1ccc(F)c(Cl)c1)OC[C@@H]1CCCN2CCCCC12 (stereo partly drawn)	10
CC(C)CCNC(=O)CN(C(=O)CCC(=O)Nc1ccccn1)c1ccc2c(c1)OCCO2	13
C/C(=N\NC(=O)CN(c1ccccc1Br)S(C)(=O)=O)c1cccs1	-2
O=C(c1ccc(Cl)c([N+](=O)[O-])c1)N(Cc1cccc(Cl)c1)C1CCS(=O)(=O)C1 (stereo not drawn)	13
COc1ccc(C(=O)NC(=S)Nc2cccnc2)cc1[N+](=O)[O-]	16
CC(=O)c1ccc(NC(=O)c2ccccc2Sc2ncnc3sc(C)c(C)c23)cc1	10
O=C(C1=C[C@H](c2ccccc2)C[C@H](OCc2ccc(CO)cc2)O1)N1CCN(Cc2ccccc2)CC1	19
CC(C)c1ccc2nc(N)sc2c1	12
Cc1cc(C)c(C#N)c(N2CCC(C(N)=O)CC2)n1	4
COc1ccc(N/N=C(/Oc2ccc([N+](=O)[O-])cc2)C(C)=O)cc1	19
N#Cc1cc(-c2ccccc2)nc(Oc2ccc(Cl)cc2)n1	8
COC(=O)c1cn(CCOc2ccccc2OC)c2ccccc12	13
Cc1ccc(NC(=O)C2CCCN2C(=O)OC(C)(C)C)cc1C (stereo not drawn)	14
Cc1ccc(S(=O)(=O)N[C@H](C(=O)OCC(=O)N2N=C(c3ccc(Cl)cc3)CC2c2ccco2)C(C)C)cc1 (stereo partly drawn)	-2
O=S1(=O)N=C(Nc2ccc(O)cc2)c2ccccc21	15
Cc1ccccc1NC(=S)Nc1ccc(Br)cc1	18
CCOc1ccc(C(C)=O)cc1CSc1nnc(-c2ccncc2)n1CCOC	7
Cc1n[nH]c(C)c1N=Nc1ccc(Br)cc1	10
COc1cc(C=C2C(=O)c3ccccc3C2=O)cc(OC)c1	14
CN(C)c1nnnn1-c1ccc(Cl)cc1	10
CC(O)[C@H]1CN=C(N)N1CCc1cc(C(F)(F)F)cc(C(F)(F)F)c1 (stereo partly drawn)	13
Cc1ccc(Nc2ccccc2)nn1	17
CC(=O)c1cccc(NC(=O)CSc2nc(N3CCCCC3)nc(N3CCCCC3)n2)c1	16
Nc1ccc2nn(-c3ccc(Cl)cc3)nc2c1	10
N#Cc1cnc(SCC(=O)NNC(=O)COc2cccc3ccccc23)nc1N	-4
O=C(CSc1nc2ccccc2[nH]1)NCc1ccc(F)cc1	16
CN1CCN(c2nc(-c3cc4ccccc4o3)cs2)CC1	7
CCOC(=O)N1CCC(=NNc2ncc(C(F)(F)F)cc2Cl)CC1	16
C[C@H](NC(=O)OC(C)(C)C)C(=O)N/N=C/C1=Cc2ccccc2OC1	5
CCOc1ccc(CN(C)CC(=O)Nc2cc(OC)c([N+](=O)[O-])cc2C)cc1	7
NC1=NS(=O)(=O)NC1c1ccc(Br)cc1 (stereo not drawn)	1
CC(C)c1onc(C(=O)N2CCCCC2)c1[N+](=O)[O-]	21
Cc1cccc(NC(=O)CSc2nnc(CNC(=O)c3ccc(S(=O)(=O)N(C)C)cc3)n2-c2ccc(F)cc2)c1	9
COc1ccc(CCNC(=O)c2ccc(N(C)S(=O)(=O)c3ccc(C)cc3)cc2)cc1OC	13
Cc1cccc(C)c1OCc1nnc(NC(=O)CSc2ccc(Cl)cc2)s1	4
c1coc(-c2ccnc(-c3ccncc3)n2)c1	6
Cc1onc(-c2c(Cl)cccc2Cl)c1C(=O)NNC(=O)c1c(-c2c(Cl)cccc2Cl)noc1C	22
CC(=O)NNC(=O)c1ccncc1	25
CC(C)(C)C(=O)C[n+]1ccccc1	10
CCOC(=O)c1cc2c(ccn2C)n1CC(=O)N(CC)CC	28
Cc1cccc(NC(=O)c2nc[nH]c2C(=O)NCC(=O)OC(C)(C)C)c1	6
COc1cc(/C=N/NC(=O)NC2CCCCC2)ccc1O	22
Cc1cc(OCCCn2ccnc2)cc(C(C)C)c1	8
CCOc1ccccc1/C=N\Nc1cnn(Cc2ccccc2)c(=O)c1Cl	19
Cc1ccsc1/C=N/NC(=S)NCc1ccccc1	1
CCCCNC(=O)/C(C#N)=C/c1ccc(-c2ccc(S(=O)(=O)N3CCOCC3)cc2)o1	7
COc1ccc(NC(=O)COC(=O)C2=COCCO2)cc1OC	13
COc1ccc(C(=O)N/N=C/c2ccc(N3CCOCC3)o2)cc1OC	18
COP(=O)(OC)c1nc(-c2cccc3ccccc23)oc1N1CCCCC1	12
CCC(C)[C@@H](CN(N=O)[C@@H](Cc1ccccc1)CN(C)N=O)N(CCc1ccccc1)N=O (stereo partly drawn)	18
OCCN(CCO)Cc1csc2ccccc12	9
CN(C)c1ccc(/C=N\Nc2nc(-c3ccccc3)cc(=O)[nH]2)cc1	16
CC1CCN(S(=O)(=O)c2cnc(Cl)c(Br)c2)CC1	13
CCN(CC)S(=O)(=O)c1ccc(C)c(NC(=O)COC(=O)[C@@H]2CCCN2C(=O)c2cccs2)c1	17
Cn1c2ccccc2c2cnn(CC(=O)Nc3cccc(F)c3)c(=O)c21	13
O=C(NC1=NCCS1)c1cc(-c2ccc(-c3ccccc3)cc2)nc2ccccc12	15
CCc1ccc(/C=C2\SC(=S)N(CCC(=O)NC3=NCCS3)C2=O)cc1	4
O=C(Nc1nc2ccccc2s1)C1=NN(c2ccccc2)C(=O)CC1	11

Two of the compounds above, field by field.
O=C(Nc1nc2ccccc2s1)C1=NN(c2ccccc2)C(=O)CC1
  Biofilm kill mix: 11

C[C@H](NC(=O)c1nc[nH]c1C(=O)N[C@@H](C)c1ccccc1)C(=O)OC(C)(C)C
  Biofilm kill mix: 18

Continuation:
SMILES	Biofilm kill mix
COc1ccc(NC(=O)COC(=O)c2ccc(NS(=O)(=O)/C=C/c3ccccc3)cc2)cc1	20
CC1(C)CC(NC(=O)C(=O)NCCc2ccc(Cl)cc2)CC(C)(C)N1	13
C=CCSc1nc(C)cc2c1C(=O)OC2	16
O=C(NCCc1ccccn1)c1ccc(NS(=O)(=O)c2ccc(F)cc2)cc1	10
CC(=O)NCc1nnc2c3ccccc3c(-c3ccccc3)nn12	6
Nc1ccc(S(=O)(=O)Nc2ccc(Cl)nn2)cc1	23
CC(=O)Nc1ccc(OCC(O)CN2CCN(c3ccc(Cl)cc3)CC2)cc1 (stereo not drawn)	16
Cc1ccc(-n2c(SCC(N)=O)nc(O)cc2=O)cc1	10
CCOC(=O)Cc1nnc(NC(=O)CSc2nc3ccccc3[nH]2)s1	25
Cc1ccc(Nc2nc(N)nc(CSc3nnc(C)s3)n2)cc1	21
O=C(O)c1ccc2c(=O)n(-c3ccccc3F)c(=S)[nH]c2c1	22
Cc1ccc(C(C)C)c(OCCCN(C)Cc2ccccc2)c1	-6
CCN(CC(=O)N(CC(C)C)c1c(N)n(CC(C)C)c(=O)[nH]c1=O)Cc1nc2ccccc2c(=O)[nH]1	13
CCOC(=O)C1(CCOc2ccccc2)CCN(Cc2cnc(SC)nc2)CC1	12
Cc1nn(-c2ccccc2)c(C)c1NC(=O)COc1ccc(Br)cc1Cl	11
Cc1cccc(C)c1NC(=S)N(CCc1ccncc1)C(C)C	10

Arranged by formula weight (largest number first): part of the list above
SMILES	Biofilm kill mix
COc1ccc(NC(=O)COC(=O)c2ccc(NS(=O)(=O)/C=C/c3ccccc3)cc2)cc1	20
CC(=O)Nc1ccc(OCC(O)CN2CCN(c3ccc(Cl)cc3)CC2)cc1 (stereo not drawn)	16
CC(=O)NCc1nnc2c3ccccc3c(-c3ccccc3)nn12	6
C=CCSc1nc(C)cc2c1C(=O)OC2	16
